gsp antag: qHTS for Antagonists of gsp, the Etiologic Mutation Responsible for Fibrous Dysplasia/McCune-Albright Syndrome: qHTS; gsp-mutant cells, cAMP HTRF, 30 min; control for the full effect not named in the record; Potency, µM (top dose mostly 76.9 µM), without a hit: at the highest dose activity change, negative = inhibition, usual class: inhibitors; 340,000 tested, 0.4% active; active = falling curve of any shape with a large fitted effect; inconclusive = falling curve, mostly with a smaller effect; inactive = flat or rising curve; cell line not stated here;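 also: intracellular cAMP measured with PDE inhibitor Ro 20-1724 present during compound exposure; potency is read from the fitted curve at half-maximal effect; % is scaled to controls: 0 for no effect and ±100 for the full control effect; nearly all actives have a fitted effect of over 65% in size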
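Cells in G418 medium, seeded 16-24 h, 37C; buffer exchange to DPBS + 1 mM CaCl2, 0.5 mM MgCl2, 0.05% BSA; cpds in DMSO + […] (300 uM stock), 30 min 37C; HTRF cAMP detection.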
ClpP mod: qHTS Assay for Activators of ClpP; ATP-dependent Clp protease proteolytic subunit (Bacillus subtilis (strain 168)), P80244; purified B. subtilis ClpP, FRET peptide cleavage, 20 min; Potency, µM (series often up to 57.5 µM), for inactives: top-dose activity change, negative = active; 340,000 tested, 1.9% active; active = well fitted falling curve with a large enough effect; inconclusive = small, poorly fitted or top-dose-only effect; inactive = no such curve, though single readings can be large or run the other way; also: potency is read from the fitted curve at half-maximal effect; the source files actives as falling curves though it sought activators and does not explain the sign; nearly all actives have a fitted effect of over 65% in size; many hits overshoot -100%
Target sequence (P80244 whole entry, looked up): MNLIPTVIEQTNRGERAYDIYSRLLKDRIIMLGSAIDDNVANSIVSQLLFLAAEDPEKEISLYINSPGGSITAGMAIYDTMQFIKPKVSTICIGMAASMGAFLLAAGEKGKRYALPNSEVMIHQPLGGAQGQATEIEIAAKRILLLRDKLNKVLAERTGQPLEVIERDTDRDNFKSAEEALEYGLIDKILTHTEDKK
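Buffer: 100 mM Tris/HCl pH8, 100 mM KCl, 0.05% low protease BSA, 2.5% glycerol, 0.01% Tween-20. ClpP 10 microg/mL final; 20 min RT; delta FRET normalized to ADEP and DMSO controls.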
Menin MLL FP FL: qHTS Assay for Inhibitors Targeting the Menin-MLL Interaction in MLL Related Leukemias: Competition With Fluorescein Labeled MLL-derived Peptide; Fluorescence polarization, fluorescein-MLL peptide displacement from menin; FP activity change, % at 61.4 µM; 290,000 tested, under 10 active; AID 1766, 2009; inconclusive = falling polarisation curve, or a change in total fluorescence; inactive = total fluorescence flat and polarisation flat or rising; no compound was filed as active; the % refers to the polarisation; negative = inhibition;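 also: % of control where 0% means no effect; inhibitors lower the polarisation; unlabelled MLL peptide was the positive control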
TRPML1 agonist: qHTS for Agonists of the Human Mucolipin Transient Receptor Potential 1 (TRPML1); Mucolipin-1 (Homo sapiens), Q9GZU1; TRPML1-expressing cells, Ca2+ dye fluorescence, FDSS; host cell line not named in the record; reference of the full effect not given here; activation, % (concentration not given with the values); 410,000 tested, 0.12% active; in the data active = activation above about 50%; inconclusive = about 30% to 50%; inactive = below about 30%; also: 0% is about no effect; the text of the record puts the active cut at 80%
Target sequence (Q9GZU1 whole entry, looked up): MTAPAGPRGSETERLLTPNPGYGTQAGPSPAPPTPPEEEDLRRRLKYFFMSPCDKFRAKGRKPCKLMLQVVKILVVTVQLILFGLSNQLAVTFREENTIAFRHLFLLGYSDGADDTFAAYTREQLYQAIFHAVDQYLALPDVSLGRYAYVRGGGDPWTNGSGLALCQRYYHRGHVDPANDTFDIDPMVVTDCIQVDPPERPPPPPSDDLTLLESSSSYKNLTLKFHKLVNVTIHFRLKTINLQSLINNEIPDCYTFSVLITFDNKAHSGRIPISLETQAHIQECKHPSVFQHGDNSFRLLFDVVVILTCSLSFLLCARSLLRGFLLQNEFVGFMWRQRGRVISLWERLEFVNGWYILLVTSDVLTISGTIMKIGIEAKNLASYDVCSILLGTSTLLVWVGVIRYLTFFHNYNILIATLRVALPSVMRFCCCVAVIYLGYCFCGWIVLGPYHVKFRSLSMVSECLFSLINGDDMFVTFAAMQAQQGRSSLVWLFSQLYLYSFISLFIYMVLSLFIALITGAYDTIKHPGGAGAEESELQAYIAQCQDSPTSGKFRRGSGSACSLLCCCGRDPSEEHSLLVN
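Agonist activity was taken from a 110 s kinetic Ca2+ dye read on the FDSS after pinning compounds onto TRPML1-DL cells. The cells were seeded at 1,500/well with Tet inducer, incubated about 16 h, then dye-loaded at room temperature.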
gsp agonist: qHTS for Agonist of gsp, the Etiologic Mutation Responsible for Fibrous Dysplasia/McCune-Albright Syndrome: qHTS; gsp mutant cells, cAMP HTRF, 30 min; control for the full effect not named in the record; Potency, µM (top dose mostly 76.9 µM), without a hit: at the highest dose activation (cAMP increase), actives largely listed as activators; 340,000 tested, 0.13% active; AID 624287, 2012; active = well fitted activation curve with a large enough effect; inconclusive = small, poorly fitted or top-dose-only effect, or another doubt; inactive = no such curve, though single readings can be large or run the other way; cell line not stated here;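 also: phosphodiesterase inhibitor Ro 20-1724 added with compounds to block cAMP breakdown; potency is read from the fitted curve at half-maximal effect; nearly all actives have a fitted effect of over 60% in size; about a fifth of the inactives were tested at one dose only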
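Cells in DMEM/10% FBS with G418 were pretreated with compounds in DMSO plus […] (300 uM stock) for 30 min at 37C. cAMP was measured by HTRF (cAMP-d2 plus anti-cAMP antibody-K) after 30 min at room temperature.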
TRPML1 blocker: qHTS for Inhibitors of the Human Mucolipin Transient Receptor Potential 1 (TRPML1). 390,000 tested, 0.02% active. activity change, negative = inhibition, % (no concentration beside the values). TRPML1-inducible cells, Ca2+ dye fluorescence, FDSS; stronger effect = lower value; inhibition of EC80 agonist-evoked calcium signal; in the data active means activity change below about -50%; inconclusive means about -30% to -50%; inactive means above about -30%;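 also: stimulus is agonist 54-4 at its EC80 concentration; % is scaled to controls: 0 for no effect and ±100 for the full control effect; compound concentration not given in the record; the text of the record puts the active cut at -80%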
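Calcium fluorescence in TRPML1-DL cells induced overnight with Tet: a 110 s read after compound pin addition, then a 110 s antagonist read after challenge with 54-4 at 4 uM final (EC80).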
An asterisk follows results filed as active; ? = inconclusive; . = not tested or not shown; & = joins results of further samples; ! = not active in a repeat; [ ] = remark or other dose. No enrichment for hits, and some 2.1% of all compounds hit somewhere here.

Every second line gives: gsp antag | ClpP mod | Menin MLL FP FL | TRPML1 agonist | gsp agonist | TRPML1 blocker
> COc1cccc(CNC(=O)CCC2CCCN(c3cc(C)nc(N)n3)C2)c1 (configuration not stated)
  15% | . | -4.0 | 0.0 | -15%[15.4 µM] | -12
> COC(=O)C1=C(C(=O)OC)SC2(S1)C(C(=O)OC)=C(C(=O)OC)SC1=C2c2cc(C)cc(C)c2NC1(C)C
  ? | 0.3% | -0.8 | -0.7 | ? | 0
> Cc1ccc(-c2nn3c(-c4ccccc4C)nnc3c3ccccc23)cc1
  . | -8.3% | . | 2.2 | . | 65
> COc1ccc(COCC(O)CN2CC(C)OC(C)C2)cc1OC (configuration not stated)
  10% | 1.3% | -1.1 | -0.5 | -41%[inhibitor] | -21
> c1cncc(Cc2cc3ccccc3[nH]2)c1
  19% | 1.5% | 8.6 | -0.5 | -32%[inhibitor] | 3
> C=CC(=O)Nc1cccc(CN2C(=O)N(c3cc(OC)cc(OC)c3)Cc3cnc(NCCCCN(CC)CC)nc32)c1
  15% | -5.9% | . | -0.3 | -11% | 0
> O=C(O)CCc1ccc(-c2ccc(Cl)cc2)n1NC(=O)c1ccc(O)cc1
  6% | -4.3% | 2.6 | 0.2 | -37%[inhibitor] | -7
> O=c1[nH]c(CN2CCCCC2)nc2ccccc12
  -2% | -0.9% | -1.8 | -0.7 | -38%[inhibitor] | -5
> CCCCCCSc1nc(O)c(C2OC(=O)c3c2ccc(OC)c3OC)c(=O)n1-c1ccccc1 (configuration not stated)
  ? | 1.9% | 0.7 | -0.1 | -43%[inhibitor] | -12
> CCOC(=O)Cc1csc(NC(=O)Cc2ccc(Cl)cc2)n1
  -9% | . | -0.2 | 2.0 | 26% | -6
> Cc1ccc(CN2CCN(Cc3ccc(-n4cccn4)cc3C)CC2CCO)cc1 (configuration not stated)
  11% | . | -2.1 | -0.8 | 2% | 11
> Cn1cccc1C(=S)N=P(C1CCCCC1)(N1CCOCC1)N1CCOCC1
  2% | -0.4% | 0.6 | 0.4 | -30% | -12
> CCOc1cccc(-c2c(C(=O)N/N=C(\C)c3ccncc3)nnn2-c2nonc2N)c1
  -11% | -1.1% | . | -0.3 | 4% | 11
> CC[C@H]1C/C=C\Cc2ccccc2[C@@H](C(=O)C[C@@H](O)CC(C)=O)OC1=O
  2% | -1.6% | . | -0.3 | . | -4
> Cc1ccc2cc(CN(Cc3nnnn3Cc3ccco3)CC3CCCO3)c(=O)[nH]c2c1C (configuration not stated)
  -10% | -22% | ? | 1.2 | -20% | -11
> Cc1cc(S(=O)(=O)n2[nH]c(=O)c(CCO)c2C)c(Cl)cc1Cl
  -8% | -1.3% | . | 0.4 | 1% | -22
> CCCCOC(=O)NC(NCC(O)c1ccccc1)(C(F)(F)F)C(F)(F)F (configuration not stated)
  0% | 0.0% | 1.5 | 1.3 | -26% | 15
> CNC(=O)c1ccc2snnc2c1
  7% | 0.2% | 4.7 | 0.1 | -40%[inhibitor] | -8
> CC1(C)OC(=O)N(CC(=O)Nc2cccc(C(F)(F)F)c2)C1(C)O (configuration not stated)
  20% | . | 1.5 | 0.0 | -3%[15.4 µM] | 16
> CCOc1ccc(CN2CCN(Cc3cccc4nonc34)CC2CCO)cc1 (configuration not stated)
  12% | . | -1.1 | 0.9 | -5%[15.4 µM] | 21
> Oc1ccc2ccccc2c1C=Nc1ccc(Cl)cn1
  10% | . | 3.7 | 0.4 | -3%[15.4 µM] | 15
> COc1ccccc1NC(=O)c1ccc(NC(=O)COC(=O)C2CCCCC2)cc1
  14% | 1.2% | 0.8 | 1.1 | ? | -9
> CCc1cccc(C)c1NC(=O)COC(=O)c1ccc2c(c1)S(=O)(=O)c1ccccc1C2=O
  2% | -2.2% | 0.5 | 1.2 | 4% | 6
> Cc1ccc(NC(=O)C2CC(=O)N(c3ccccc3Cl)C2)cc1S(=O)(=O)N1CCOCC1 (configuration not stated)
  1% | -1.9% | . | 1.5 | 9% | 13
> Cc1cnc(NC(=O)c2ccc3c(c2)C(=O)N(Cc2ccco2)C3=O)s1
  -8% | -22% | 2.1 | -0.7 | -4% | 9
> O=C1CCN(CCc2ccccc2)CCN1CCO
  14% | 0.5%&-1.6% | 2.2 | 0.5&-0.1 | . | -5
> Cc1cccc(NC(=S)N/C(=N/S(=O)(=O)c2ccccc2)c2ccccc2)c1
  20%&-10% | 2.2µM*! | 0.4 | 0.0&-0.1 | ? | -4&-2
> COCCN(C(=O)CCC(=O)Nc1nccs1)C(C(=O)NCCC(C)C)c1ccc(F)cc1 (configuration not stated)
  -2% | -0.6% | -4.0 | -0.1 | 17%[15.4 µM] | -5
> O=C(COc1ccc(Br)cc1)OCc1nnc(-c2ccccc2)o1
  14% | -1.5% | 1.3 | 3.4 | 0% | 4
> Cn1c(=O)c2c(nc(SCCCO)n2Cc2ccccc2Cl)n(C)c1=O
  -12% | -4.3% | 3.5 | 1.6 | 28% | -10
> Cc1ccc(C(O)(CCN2CCCCC2)c2ccccc2)cc1 (configuration not stated)
  -2% | 0.2% | 0.3 | 0.1 | ? | 0
> COc1ccc(CNC(=O)C2CC(c3cccc([N+](=O)[O-])c3)=NO2)cc1 (configuration not stated)
  1% | 0.2% | 3.1 | -0.7 | . | 20
> O=c1c(Cc2ccc(F)cc2)c(O)ccn1Cc1ccco1
  11% | -0.3% | -1.4 | -0.8 | 26% | 1
> O=C(CCN1C(=O)S/C(=C/c2ccccc2)C1=O)Nc1ccc(O)c(C(=O)O)c1
  -2% | -4.6% | . | 1.1 | -71%[inhibitor] | 2
> O=C1c2ccccc2C(=O)N1CCOc1ccccc1Cl
  -16% | -4.9% | . | -1.0 | -1% | -18
> O=C(NCCCN1CCOCC1)C(=O)N/N=C/c1c2ccccc2cc2ccccc12
  -8% | 1.7% | 7.8 | 0.6 | -12%[15.4 µM] | 0
> CC1(C)CC(=O)C(Sc2ccc(Br)cc2)=C(O)C1
  5% | . | -1.2 | -0.1 | -12%[15.4 µM] | 1
> Cc1ccc(S(=O)(=O)N2CCC(C(=O)N[C@@H](C)C(=O)Nc3ccc4c(c3)OCO4)CC2)cc1
  4% | -2.3% | -0.4 | 0.3 | -81%[inhibitor] | -2
> O=C(O)CCCC(=O)Nc1ccccc1SCCS(=O)(=O)c1ccc(Cl)cc1
  13% | -0.1% | -0.3 | -1.6 | 15%[15.4 µM] | -16
> Cc1cc(C)c(NC(=S)NCCO)c(C)c1
  7% | 0.5% | 2.5 | -0.5 | 5% | 16

In another format: 3 of the compounds above.
| molecule | gsp antag | ClpP mod | Menin MLL FP FL | TRPML1 agonist | gsp agonist | TRPML1 blocker |
| --- | --- | --- | --- | --- | --- | --- |
| O=C(O)CCCC(=O)Nc1ccccc1SCCS(=O)(=O)c1ccc(Cl)cc1 | 13% | -0.1% | -0.3 | -1.6 | 15%[15.4 µM] | -16 |
| Cc1ccc(S(=O)(=O)N2CCC(C(=O)N[C@@H](C)C(=O)Nc3ccc4c(c3)OCO4)CC2)cc1 | 4% | -2.3% | -0.4 | 0.3 | -81%[inhibitor] | -2 |
| O=C1c2ccccc2C(=O)N1CCOc1ccccc1Cl | -16% | -4.9% | . | -1.0 | -1% | -18 |

The results go on.
Every second line gives: gsp antag | ClpP mod | Menin MLL FP FL | TRPML1 agonist | gsp agonist | TRPML1 blocker
> O=C(Cn1cc([N+](=O)[O-])cn1)Nc1ccn(Cc2c(F)c(F)c(F)c(F)c2F)n1
  9% | -0.3% | 0.1 | -0.4 | 22% | -14
> COC(=O)C1N[C@@H]([C@@H](NC(=O)COc2ccccc2)C(=O)NCc2ccc(OC)cc2)SC1(C)C (some centres not stated)
  -3% | -1.0%&-0.8% | . | -1.0&-0.6 | -2% | 10
> COc1ccc(C(C(=O)NC2CCCCC2)N(C(=O)c2ccccn2)c2cccnc2)c(OC)c1 (configuration not stated)
  7% | . | -2.0 | -0.7 | -7% | 10
> COc1ccc(C2NC(=S)N3C(c4ccc(OC)cc4)NC(=S)N23)cc1 (configuration not stated)
  -1% | -4.0% | 2.8 | -0.7 | 5% | 7
> CC(=O)c1ccc(NC(=O)Nc2cccc(Cl)c2)cc1
  ? | 0.4% | -1.3 | 0.8 | 4% | 11
> O=C(C(Cc1ccccc1)n1cccc1)N1CCc2ccccc21 (configuration not stated)
  -27% | -0.3% | -0.6 | 3.4 | -3% | 84
> COc1cc(C2c3c(oc4cc(C)c(C)cc4c3=O)C(=O)N2c2cc(C)ccn2)ccc1O (configuration not stated)
  9% | 0.2% | 1.7 | -0.6 | -19% | 2
> COc1ccc(Cc2n[nH]c(=S)n2NC(=O)Nc2ccc(Cl)c(Cl)c2)cc1
  -6% | 0.5% | 2.8 | 0.0 | -13% | -11
> CCC(=O)Nc1ccc2nc(SCC(=O)N3CCCC3)sc2c1
  -7% | 0.4% | 3.8 | 1.0 | ? | -3
> CC(=O)N1CCCc2cc(S(=O)(=O)N(Cc3ccccc3)C(C)C)ccc21
  . | -0.3% | . | -0.5 | . | -4
> Cc1cc(C)c(C#N)c(N2CCN(S(=O)(=O)Cc3ccccc3)CC2)n1
  2% | 3.8% | 6.8 | 2.9 | -54%[inhibitor] | 0
> COc1ccc(-n2nc(C(=O)NCC(=O)NCC3COc4ccccc4O3)c3ccccc3c2=O)c(OC)c1 (configuration not stated)
  -13% | -1.8% | 1.5 | -0.5 | -16% | 35
> C/C(NCC(C)(C)CN(C)C)=C(/C#N)C(=O)NCc1ccccc1
  1% | 3.7% | 7.0 | 0.5 | 0% | -4
> CCN(CC)CC#CCC(O)(c1ccccc1)C1CCCC1 (configuration not stated)
  6% | -1.2% | 2.0 | 0.7 | -8% | 6
> Cc1cccc(C)c1NC(=O)COC(=O)CCc1c[nH]c2ccccc12
  -3% | 1.6% | . | -0.4 | 8% | 27
> CCOC(=O)c1ccc(Oc2coc3cc(O)ccc3c2=O)cc1
  -22% | . | 1.8 | 0.7 | ? | -8
> CN(C)/C=C/C(=O)c1ccc(N2CCN(c3ncc(C(F)(F)F)cc3Cl)CC2)cc1
  10% | -15% | 12 | -0.7 | 21% | 12
> O=C(COc1ccccc1)Nc1cccc(-c2nc3ccccc3[nH]2)c1
  -8% | 32µM* | 1.8 | 2.3 | -3% | 6
> COc1ccc2c(CC(=O)OCC(=O)c3ccccc3OC)coc2c1
  -2% | -4.8% | 2.8 | 0.6 | -36%[inhibitor] | 16

Screening data (PubChem)
